High-throughput results (PubChem)
HIV TAR-Tat: HIV-1 TAR-Tat binding disruption; HIV-1 TAR RNA, Tat peptide displacement FRET; stronger effect = higher value; z-score (no concentration beside the values); hit rate 0.6% among 100,000;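 also: score is relative to mean and SD of negative controls; some compounds called inactive have numbers as strong as hits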
CDC25B-CDK2 inh: human CDC25B-CDK2/CyclinA binding inhibition. AID 1259370. HTRF CDC25B-CDK2/CyclinA binding, anti-His/anti-Flag; stronger effect = higher value. hit rate 0.72% among 94,000. z-score (concentration not given with the values);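 also: score is relative to mean and SD of negative controls; strong numbers were not always called active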
An asterisk follows results filed as active; . = not tested or not shown.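 The calls were made as follows: active = z-score from 3 up in half or more of its runs; inactive = the rest.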

Below each compound – HIV TAR-Tat	CDC25B-CDK2 inh
O=C(Cn1c2ccccc2c2cn[nH]c(=O)c21)N1CCCCC1
→ .	-1.69
CC(=O)CCc1c[nH]c2ccccc12
→ .	0
CCC1CCCCN1Cc1ccc(CNS(=O)(=O)c2ccc3c(c2)CCCC(=O)N3)o1 (centres undefined)
→ 0.08	.
CC(=O)NCCOc1nc(N(C)C)nc(N2CCCCC2)n1
→ 1.6	-1.24
O=C(Cc1ncon1)Nc1ccc(F)c(Cl)c1
→ .	-0.9
COC(=O)c1c(SCc2cccc(OC)c2)[nH]c2ccccc2c1=O
→ 0.09	.
CNC(=O)C1CCC(Cn2c(=O)c3sccc3n(Cc3cc(=O)n4c(C)cccc4n3)c2=O)CC1 (centres undefined)
→ 0.09	.
O=c1c(S(=O)(=O)c2cc(F)cc(F)c2)c[nH]c2ccc(F)cc12
→ -0.8	0.37
Fc1ccc(C(Nc2ccc3c(c2)OCCO3)c2nnc(-c3ccccc3)o2)cc1 (centres undefined)
→ 0.48	.
CCN1CCN(C(=O)C2CCN(S(=O)(=O)c3c(C)noc3/C=C/c3ccco3)CC2)CC1
→ 0.42	-1.41
O=C(NCCC1=CCCCC1)c1n[nH]c2c1CCCC2
→ 1.59	-0.28
COc1ccc(N2C(=O)c3cccnc3C2Nc2ccc(F)cc2F)cc1 (centres undefined)
→ 0.41	.
CC1CCCN(C(=O)C2CCC(CNc3c(N4CCCCC4)c(=O)c3=O)CC2)C1 (centres undefined)
→ 1.26	-2.43
CCC1CCCCN1CCCN1C(=O)c2cc3occc3n2CC1(C)C(=O)NC1CCC(C)CC1 (centres undefined)
→ 0.9	.
O=C(NC1CCCC1)C1c2cc(Br)ccc2OCC(=O)N1C1CCCCC1 (centres undefined)
→ 1.76	.
O=C(NCCc1cccs1)c1ccc2c(c1)nc1n2CCOC1
→ 0.29	.
Cc1cccc(OCC(=O)OCc2cc(=O)n3ccsc3n2)c1
→ 0.73	.
CC1CC(C)CN(c2nc(N3CCCC3)nc(N)c2[N+](=O)[O-])C1 (centres undefined)
→ 0.67	.
CCC1NC(C(=O)O)CS1 (centres undefined)
→ .	-1.34
COc1ccc(OC)c(C2/C(=C(\O)c3ccccc3)C(=O)C(=O)N2c2nc3ccccc3s2)c1 (centres undefined)
→ 1.19	0.78
O=C(CCCn1c(=S)[nH]c2cc3c(cc2c1=O)OCO3)NCCCN1CCCC1
→ .	0.04
COc1cc(C(c2c(O)[nH]c(=S)[nH]c2=O)c2c(O)[nH]c(=S)[nH]c2=O)cc(OC)c1OC
→ .	-0.58
CCC(C)NC(=O)C1=Cc2sc(C)c(C)c2CS1 (centres undefined)
→ -2.12	.
Cc1ccc(OCC(=O)Nc2sc3c(c2C(N)=O)CCC3)c(C(C)(C)C)c1
→ -0.2	-10.2
Cc1ccccc1CS(=O)(=O)Cc1ccc(C(=O)N2CCn3c(nc4ccccc43)C2)o1
→ .	-1.46
CSc1ccc(CNC(=O)c2cc(-c3cccnc3)nc3ccc(Br)cc23)cc1
→ 1.87	.
COc1ccc(C2C(C#N)=C(N)Oc3n[nH]c(C)c32)cc1Cn1nnc2ccccc21 (centres undefined)
→ -0.73	-1.28
COCCCN1C(=O)c2[nH]nc(-c3ccccc3O)c2C1c1ccccc1 (centres undefined)
→ -0.53	-1.14
O=C(c1ccc2cn[nH]c2c1)N1CCN(C2CCCCC2)CC1
→ -2.89	.
CSc1ccc(CNC(=O)c2cnc3scc(C)n3c2=O)cc1
→ 1.64	.

Part of the list above, as comma-separated lines.
Molecule,HIV TAR-Tat,CDC25B-CDK2 inh
COc1cc(C(c2c(O)[nH]c(=S)[nH]c2=O)c2c(O)[nH]c(=S)[nH]c2=O)cc(OC)c1OC,.,-0.58
CCC(C)NC(=O)C1=Cc2sc(C)c(C)c2CS1 (centres undefined),-2.12,.
Cc1ccc(OCC(=O)Nc2sc3c(c2C(N)=O)CCC3)c(C(C)(C)C)c1,-0.2,-10.2

New compounds follow:
Below each compound – HIV TAR-Tat	CDC25B-CDK2 inh
CCN1C(SCC(=O)NC2CCCCC2)=NS(=O)(=O)c2ccccc21
→ 0.29	.
COc1ccc(-c2cc(C(F)(F)F)nc(N)n2)cc1
→ .	0.83
Cc1ccc(-c2c(N(C)c3cccc(C)c3)c(=O)c2=O)cc1
→ 2.38	.
CCc1cc(Nc2cccc3c2CCCC3)n2ncnc2n1
→ 1.26	0.05
Cc1cc(NC(=O)CC23CC4CC(CC(C4)C2)C3)no1
→ .	0.39
CCC(CN1CCOCC1)NC(=O)c1c(C)oc2ncnc(N3CCOCC3)c12 (centres undefined)
→ 0.12	.
CCCSc1nnc(-c2nonc2NC(C)=O)n1C
→ -1.03	-2.58
Cc1ccc(Nc2c(-c3cccc(O)c3)nc3ncccn23)cc1C
→ 0.07	-1.31
CSc1cccc(N2C(=O)N(Cc3ccc(Br)cc3F)C3CS(=O)(=O)CC32)c1 (centres undefined)
→ 0.38	0.51
Cc1oc2ncnc(N3CCOCC3)c2c1C(=O)N(C)c1ccccc1F
→ -0.19	.
N#Cc1cc2c(=O)n3ccccc3nc2n(-c2ccc(Br)cc2)c1=O
→ -1.48	-1.91
CCC(=O)Nc1nc(NC(=O)CC)nc(-c2ccccc2Oc2ccc(Cl)cc2Cl)n1
→ .	-1.83
O=c1c2c(-c3ccccc3)csc2ncn1Cc1ccc(F)cc1
→ 0.36	-0.44
COc1cccc(/C=C/c2nc(C#N)c(N3CCC(C)CC3)o2)c1
→ -0.55	-0.82
CCCCN1CC(c2nc3ccccc3n2CCCOc2cccc(OC)c2)CC1=O (centres undefined)
→ -0.08	-1.51
CS(=O)(=O)N1CCc2cc(C(=O)N3CCN(C/C=C/c4ccccc4)CC3)ccc21
→ 1.85	-2.5
O=S(=O)(c1ccccc1)N1CCN(c2nc3ccccc3n3cccc23)CC1
→ 2.08	-1.19
COC(=O)c1sc2ccccc2c1S(=O)(=O)Nc1ccc(F)c(Cl)c1
→ 0.7	.
CC(C)CNc1cc(N2CCCCC2)c2noc3c2c1C(=O)c1ccccc1-3
→ 1.09	0.33
CCOC(=O)C1CCCN(C(=O)c2cc3c(s2)-c2ccc(Cl)cc2S(=O)(=O)C3)C1 (centres undefined)
→ 0.45	-0.65
N#CC1=C(N)Oc2cc3c(cc2C1c1ccccc1OCc1ccc(F)cc1)OCO3 (centres undefined)
→ .	-0.22
CCN(CC)CCCN1C(=O)CSC1c1ccc2c(c1)OCO2 (centres undefined)
→ .	-1.36
CC1(C)CC(=O)C2=C(C1)c1c(ccc3ncccc13)NC2c1ccc(Cl)cc1 (centres undefined)
→ .	-0.03
CSc1ccc(C2C(C(=O)OCC3CCCO3)=C(C)NC3=C2C(=O)CC(C)(C)C3)cc1 (centres undefined)
→ 1.33	-0.24
CC1=NN(C(=O)c2ccc(C)c(C)c2)C(O)(C(F)(F)F)C1 (centres undefined)
→ .	-0.74
O=C(Cn1cc2c(n1)CCCC2)Nc1c(F)cc(F)cc1Br
→ 0.18	-0.8
Cc1sc(NC(=O)c2ccc(S(=O)(=O)N3CCCCCC3)cc2)nc1-c1ccccc1
→ .	-7.76
COc1ccc(NC(=O)CSc2ccsc2[N+](=O)[O-])cc1Cl
→ 10.3*	3
CC(C)CNC(=O)c1cc(C(C)C)on1
→ 1.42	-2.51
Cc1ccc(S(=O)(=O)c2cnc3cc4c(cc3c2N2CCCCC2)OCCO4)cc1
→ 0.9	-0.62
CC(=O)Nc1ccc(OCc2ccc3ccccc3n2)cc1
→ .	-1.43
COC(=O)CSc1cc(C)nc(NC(C)=O)n1
→ 0.61	-1.74
O=C1CCCC2=C1C(c1ccco1)N(S(=O)(=O)c1ccc(Cl)cc1)c1ccccc1N2 (centres undefined)
→ -3.85	.
Cc1nc(-c2nc(C(=O)NN(S(C)(=O)=O)S(C)(=O)=O)cs2)cs1
→ .	0.59
N#Cc1nc(-c2ccc(F)cc2)oc1N1CCN(Cc2ccccc2)CC1
→ 1.18	-0.81
c1nc(N2CCCC2)c2nc3n(c2n1)CCCC3
→ 1.42	.
COc1cc(/C=N\Nc2nnc(-c3ccccc3)c(=O)[nH]2)cc([N+](=O)[O-])c1O
→ .	-8.39
COCc1cc(C)nc2sc3c(=O)n(-c4cc(C)ccc4C)nnc3c12
→ 2.3	-2.23
N#CC1=C2SCN(CCc3ccccc3)CN2C(=O)CC1c1ccc(F)cc1 (centres undefined)
→ 1.09	-0.26
Cn1c(C(=O)Nc2ccc3c(c2)OCO3)cc2c(=O)[nH]c3ccccc3c21
→ 0.02	-1.22
CCOC(=O)C1=C(C)Nc2ncnn2C1c1cccnc1 (centres undefined)
→ 2.16	.
CSc1nc(NC(=O)NS(=O)(=O)c2ccccc2Cl)nc(C2CC2)n1
→ .	-0.84
O=C(CSc1nnc(Cn2nc(-c3ccccc3)ccc2=O)o1)NCCc1ccccc1
→ -0.37	.
CCOc1ccc(-n2ccnc2SCC(=O)Nc2nnc(SCC)s2)cc1
→ .	-1.96
CCc1nnc(SCc2cn3ccccc3n2)c2cc3oc(C)cc3n12
→ 2.14	.
Cc1ccnc2nc(NC(=O)C(C)Oc3ccccc3)nn12 (centres undefined)
→ -0.87	-2.6
N#Cc1nc(-c2ccc(F)cc2)oc1NCCCN1CCOCC1
→ 0.78	0.29
N#Cc1cn(CCSc2cc(C(F)(F)F)nc3ccccc23)c(=O)[nH]c1=O
→ .	-1.04
COCCCNC(=O)C1CCCN1c1nn2c(=O)cc(C)nc2s1 (centres undefined)
→ 1.86	-0.76
Oc1ccccc1-c1nnc(-c2ccccc2)o1
→ 0.14	.
CC(=O)N1c2ccc(S(=O)(=O)N3CCCC(C(=O)NC4CCCC4)C3)cc2CC1C (centres undefined)
→ 1.45	.
CCCC(CCC)c1nc2ccncc2[nH]1
→ 1.23	-1.4
CCCOC(=O)C1C2C=CC3(CN(c4ccccc4Cl)C(=O)C13)O2 (centres undefined)
→ 4.36	0.82
Cc1nc2c(sc3nc4c(cc32)COC(C)(C)C4)c(=O)n1CC(=O)NCc1ccco1
→ 1.14	.
Cc1nc2ncnn2c(NCc2ccc(F)cc2)c1C
→ 0.03	.
c1csc(C2=NN3C(C2)c2ccccc2OC3c2ccsc2)c1 (centres undefined)
→ .	-0.79
CCSc1ncc(Cl)c(C(=O)N(Cc2ccccc2Cl)C2CCS(=O)(=O)C2)n1 (centres undefined)
→ 0.7	0.66
CC(C)n1c(C(F)(F)F)nc2cc(C(=O)O)ccc21
→ .	-1.47
CCOc1ccc(NS(=O)(=O)c2ccc(-c3ccc(=O)[nH]n3)s2)cc1
→ -0.13	.
Cc1ccc2cc(CNCC(C)O)c(=O)[nH]c2c1C (centres undefined)
→ -0.27	-1.93

Random excerpt: six entries already listed
Below each compound – HIV TAR-Tat	CDC25B-CDK2 inh
CC(=O)N1c2ccc(S(=O)(=O)N3CCCC(C(=O)NC4CCCC4)C3)cc2CC1C (centres undefined)
→ 1.45	.
c1nc(N2CCCC2)c2nc3n(c2n1)CCCC3
→ 1.42	.
O=C(CSc1nnc(Cn2nc(-c3ccccc3)ccc2=O)o1)NCCc1ccccc1
→ -0.37	.
Cn1c(C(=O)Nc2ccc3c(c2)OCO3)cc2c(=O)[nH]c3ccccc3c21
→ 0.02	-1.22
CC(C)n1c(C(F)(F)F)nc2cc(C(=O)O)ccc21
→ .	-1.47
COCCCNC(=O)C1CCCN1c1nn2c(=O)cc(C)nc2s1 (centres undefined)
→ 1.86	-0.76

(listing goes on)
Below each compound – HIV TAR-Tat	CDC25B-CDK2 inh
Cc1ccc2c(Cl)c(C(=O)Oc3ccc4c(C)cc(=O)oc4c3)sc2c1
→ .	-3.18
COC(=O)CC1(O)c2ccccc2C(=O)N1Cc1ccc(OC)cc1 (centres undefined)
→ .	-0.7
O=C(c1cc(=O)c2ccccc2o1)N(Cc1cccs1)c1ccccn1
→ -0.59	0.02
COc1cccc(C2CC(=O)N3CN(C4CCCC4)CSC3=C2C#N)c1 (centres undefined)
→ 1.98	5.72*
Cc1c(C(=O)Nc2cccc3cccnc23)oc2ccc(Br)cc12
→ 0.78	-0.05
CCCc1nc2sc3c(NCCO)ncnc3c2c2c1COC(C)(C)C2
→ .	-8.67
O=S(=O)(Nc1ccc2c(c1)N(S(=O)(=O)c1ccc(F)cc1)CCC2)c1cccc(F)c1
→ 0.92	.
CCCCN(C)CCNC(=O)Cn1ncc2c1-c1ccccc1OC2
→ 1.17	-1.4
Fc1ccc(C2=Nn3c(nnc3-c3ccc(Cl)cc3)SC2)cc1
→ 0.21	.
O=c1[nH]cnc2c1sc1nnc(-c3ccccc3)c(-c3ccccc3)c12
→ .	-0.19
CCN(CC)CCCC(C)Nc1nc(C)nc2ccccc12 (centres undefined)
→ -0.41	1.27
Cc1ccc(-n2nc(C)c3c(C)c(CCC(=O)O)c(C)nc32)cc1C
→ 1.61	-0.95
COC(=O)C1CCN([C@H]2CS(=O)(=O)C[C@@H]2S(=O)(=O)c2ccc(Cl)cc2)CC1
→ 1.11	0
CCCCNc1oc(-c2ccc(COc3ccc(C)cc3)o2)nc1C#N
→ 1	-2.24
Cc1ccn2c(=O)cc(COc3ccc(NC(=O)c4ccco4)cc3)nc2c1
→ 0.13	.
Cc1ccc(C(=O)Nc2c(C)nc3c(C)cccn3c2=O)cc1C
→ 0.58	.
CCc1nn2c(=O)cc(CSc3nc4ccc(NC(=O)C(C)C)cc4s3)nc2s1
→ 1	.
Cc1ccn2c(-c3csc(Nc4cccc(C(=O)O)c4)n3)c(C)nc2c1
→ .	-5.57
CC(C)(CO)NCC(O)Cn1c2ccc(Cl)cc2c2cc(Cl)ccc21 (centres undefined)
→ .	-0.14
COc1ccc(CN2C(=O)c3cccnc3C2=O)cc1S(=O)(=O)NCC1CCCO1 (centres undefined)
→ 0.34	.
O=S(=O)(Nc1ccc2c(c1)N(S(=O)(=O)c1ccc(F)cc1)CCC2)c1ccc(F)cc1F
→ 1.09	.
Clc1ccccc1-c1nnc(-c2ccccc2)o1
→ 0.34	-0.19
